Bioassay records from PubChem BioAssay.
Beta apoptosis: inhibitors of cytokine-induced beta cell apoptosis, primary screen, luminescence. INS-1E cytokine-induced death, ATP luminescence, 48 h; percent of positive-control rescue, neutral wells zero. 300,000 tested, 0.8% active. protection from apoptosis, % (test concentration not listed);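 active = all replicates at 75% or more, or half of them and the mean; inconclusive = half reach 75% but not the mean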;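 note: 0% = cytokine-treated negative control wells and 100% = positive control rescue; higher means more ATP so stronger rescue from cytokine killing; wells of about 40 µL received 100 nL stock; the first replicate is given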
LANA-H2B inh: blockers of LANA interaction with H2A/H2B – biochemical, FP readout, HTS, primary screen | inhibition, % (test concentration not listed) | AID 2629, 2010 | Protein LANA1 (Human herpesvirus 8 type P (isolate GK18)), Q9QR71 | 320,000 tested, 0.6% active | cell-free LANA-H2A/H2B peptide, fluorescence polarization; in the data active = inhibition mostly above about 10%, no sharp cut-off; inactive = mostly below about 6.7%;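 note: stock transfer was 7.5 nL into about 10 µL; 0% = median of vehicle wells and 100% = median of positive control wells; one replicate is shown; the record names a cut of 25% in any replicate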
Target sequence (Q9QR71 whole entry, looked up): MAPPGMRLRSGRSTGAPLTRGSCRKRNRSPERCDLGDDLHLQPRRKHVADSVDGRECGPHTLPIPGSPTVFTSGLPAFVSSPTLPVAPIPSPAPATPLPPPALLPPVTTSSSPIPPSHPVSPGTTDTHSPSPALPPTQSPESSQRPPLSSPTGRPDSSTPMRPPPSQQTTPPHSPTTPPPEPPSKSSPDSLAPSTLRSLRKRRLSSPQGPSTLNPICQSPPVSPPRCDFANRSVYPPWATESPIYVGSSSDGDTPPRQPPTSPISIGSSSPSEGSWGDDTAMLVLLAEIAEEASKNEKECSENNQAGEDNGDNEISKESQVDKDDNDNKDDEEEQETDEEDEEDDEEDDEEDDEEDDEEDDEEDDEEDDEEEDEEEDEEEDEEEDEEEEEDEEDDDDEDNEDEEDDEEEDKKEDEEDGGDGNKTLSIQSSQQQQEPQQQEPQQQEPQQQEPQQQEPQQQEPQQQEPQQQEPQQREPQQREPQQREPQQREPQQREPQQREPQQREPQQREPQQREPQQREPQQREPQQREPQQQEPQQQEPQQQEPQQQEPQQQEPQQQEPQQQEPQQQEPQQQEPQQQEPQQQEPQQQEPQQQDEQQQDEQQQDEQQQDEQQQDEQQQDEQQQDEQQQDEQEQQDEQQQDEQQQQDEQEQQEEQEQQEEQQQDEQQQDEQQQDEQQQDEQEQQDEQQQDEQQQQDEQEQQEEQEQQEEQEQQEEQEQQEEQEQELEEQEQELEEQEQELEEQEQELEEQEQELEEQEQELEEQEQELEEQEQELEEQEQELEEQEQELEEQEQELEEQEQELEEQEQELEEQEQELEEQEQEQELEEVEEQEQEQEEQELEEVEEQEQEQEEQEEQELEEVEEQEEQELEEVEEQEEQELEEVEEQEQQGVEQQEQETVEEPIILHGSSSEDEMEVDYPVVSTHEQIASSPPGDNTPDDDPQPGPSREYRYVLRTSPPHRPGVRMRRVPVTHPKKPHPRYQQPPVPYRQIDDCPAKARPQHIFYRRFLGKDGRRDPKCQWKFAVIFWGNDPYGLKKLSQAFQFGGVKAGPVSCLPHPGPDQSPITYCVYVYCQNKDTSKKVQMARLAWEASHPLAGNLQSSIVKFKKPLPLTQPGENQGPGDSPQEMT
RanGTP-Impb inh: inhibitors of RanGTP-importin-beta interaction, primary screen, biochemical, FRET, CFP-Ran, YFP-importin-beta, homogeneous; Ran GTPase (GTP-bound) - importin-beta complex; cell-free CFP-Ran/YFP-importin-beta FRET ratio; inhibition, % (concentration not given with the values); 300,000 tested, 1.1% active;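 active = most replicates above 15%; inconclusive = exactly half above 15%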;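 note: 0% = DMSO wells and 100% = Ran loaded with GDP instead of GTP; wells of about 40 µL received 100 nL stock; the first replicate is given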
Bfl-1 A1 inh: caspase 3/7 activation in MEF A1-2A-BIM cells, primary screen, A1 inhibitor project, cell-based, luminescence, HTS. Caspase-Glo 3/7 luminescence, 3 h; percent of clofoctol response, vehicle zero. caspase activation, % (no concentration beside the values). 330,000 tested, 0.066% active. AID 2462, 2010;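 active = over half of replicate activation scores above 10%, or exactly half above 10 with the replicate mean above 10; inconclusive = replicate mean below 10 yet half the replicates above 10; inactive = over half of replicates below 10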;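 note: wells of about 30 µL received 50 nL stock; many hits fall short of the cut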
Vif A3G: inhibitors of Vif binding to APOBEC3G peptide, primary screen, biochemical, TR-FRET, GST-Vif 1-94, biotin-A3G peptide, dose response retest (AID 1117319). Virion infectivity factor (Human immunodeficiency virus type 1 group M subtype B (isolate …. TR-FRET GST-Vif / biotin-A3G peptide binding; higher % means a stronger effect; test concentration not given here; strong numbers were not always called active. inhibition, %, or IC50 in µM where a hit was titrated. 260,000 tested, 0.57% active;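 active = above the screen mean plus three standard deviations and confirmed in dose response; inconclusive = results disagree or hit not tested in dose response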;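 note: Vif residues 1-94 fused to GST binding biotinylated APOBEC3G peptide 110-148; 0% = full assay without inhibitor and 100% = GST in place of GST-Vif; retest series ran down from 100 µM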
T cruzi repl: inhibitors of intracellular T. cruzi growth, primary screen, luminescence, NIH3T3 host cells | T. cruzi beta-gal in NIH3T3, 90 h | 300,000 tested, 1.4% active | inhibition, % (test concentration not listed) | AID 1885, 2009;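 active = mean inhibition across valid replicates above about 55%, limit read from the data; inconclusive = mean below that limit but half or more replicates reach it; inactive = mean below it, under half of replicates reach it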;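 note: signal also drops with host cell toxicity which is not excluded here; 0% = plate median of DMSO wells and 100% = zero luminescence signal; higher percent means less beta-gal luminescence so fewer parasites; stock transfer was 50 nL into about 50 µL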
MLL AF4-AF9 inh: inhibitors of AF4 peptide binding to AF9, primary screen, biochemical, AlphaScreen, biotin-AF4 peptide, FLAG-AF9, single point; Protein AF-9 (Homo sapiens), P42568; inhibition, % at 10 µM; 350,000 tested, 0.47% active;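 active = every replicate reaching a set inhibition limit, whatever the replicate mean, cut at about 25% in these data; inconclusive = mean inhibition reaches that limit but some replicates miss it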;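 note: 0% = plate neutral control median and 100% = total signal loss; the record names both 10 and 1 µM as test concentration; the first replicate is given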
Calb FLC: C. albicans growth inhibition with fluconazole, primary screen, CaCi-2 strain, Alamar Blue fluorescence; 300,000 tested, 0.57% active; C. albicans CaCi-2 (fluconazole-resistant clinical isolate) + fluconazole, 48 h; AID 1979, 2009; growth inhibition, % (no concentration beside the values);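 active = most replicates above 75%; inconclusive = exactly half above 75%; inactive = most below 75%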;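 note: all wells also contain fluconazole at 8 µg/ml as a sub-toxic cotreatment; 0% = median of DMSO wells and 100% = median of geldanamycin control wells; wells of about 8 µL received 7.5 nL stock; the first replicate is given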
The depositor's hits bear a star; u = inconclusive; x = no result given; & = joins results of further samples.

SMILES	Beta apoptosis	LANA-H2B inh	RanGTP-Impb inh	Bfl-1 A1 inh	Vif A3G	T cruzi repl	MLL AF4-AF9 inh	Calb FLC
CCCCN(CCCC)CCNC(=O)CN1C(=O)CSc2ccc(S(=O)(=O)N3CCOCC3)cc21	-5	-2.9	2.9	0.0	-3%	10	2.5	-5
COc1ccccc1N1CCN(S(=O)(=O)c2ccc(-n3cnnn3)cc2)CC1	-3	-6.0	u	-1.0	x	1	0.8	-3
Clc1cccc(Cl)c1OCCOCCNCc1ccccc1	-8	-4.0	0.6	-2.9	8%	27	3.0	0
O=C(C1=C[C@@H](c2ccccc2)C[C@@H](OCCCCO)O1)N1CCOCC1	-1	-1.6	-4.6	-0.1	x	-1	-1.3&-3.5	1
O=C(Nc1ccccc1[N+](=O)[O-])C1=C(O)CCn2c1nc1ccccc12	23	-4.6	2.6	0.9	21%	6	x	-2
Cc1sc2nc(CSc3ccc([N+](=O)[O-])c(C(F)(F)F)c3)[nH]c(=O)c2c1C	-5	-0.1	-3.7	1.4	14%	-7	-4.0	-1
NC1=NC(c2ccccc2)N=C(Nc2ccccc2)N1 (stereo not drawn)	-10	-1.9	-2.6	-0.5	6%	7	2.4	8
CCN(Cc1cc2ccccc2[nH]c1=O)S(=O)(=O)c1ccccc1	x	2.0	-1.0	0.2	-22%	-6	x	16
O=C(Nc1ccc(S(=O)(=O)Nc2nccs2)cc1)c1cc(-c2ccccn2)nc2ccccc12	3	-4.3	3.2	-0.3	-5%	-5	3.2	20
COc1ccc(C(=O)NCCC2=CCCCC2)cc1[N+](=O)[O-]	-2	-1.9	-2.8	-0.4	0%	4	-1.2	-5
COc1ccccc1-c1ccc2nnc(SC)n2n1	-6	-0.3	1.3	0.9	-5%	-1	-1.0	3
CC(=O)c1c(C)oc2ccc(NS(=O)(=O)c3ccc(C(=O)O)cc3)cc12	-2	5.9	3.6	-0.2	x	2	2.1	-4
COc1ccc(C(=O)NCCc2ccc(Cl)cc2)cc1S(=O)(=O)N1CCCCC1C (stereo not drawn)	-2	-6.1	x	-0.8	-4%	x	-1.5	x
O=[N+]([O-])c1cc([N+](=O)[O-])c2oc(-c3ccccc3)c(Br)c2c1O	x	x	-7.1	x	0%	-1	x	u
O=C(Nc1ccccc1)c1cccnc1N1CCOCC1	-3	2.1	-1.7	-0.1	0%	-3	x	1
COc1cccc(/C=C/C(=O)Nc2ccc(N3CCOCC3)cc2)c1OC	0	-2.0	1.1	0.6	x	-13	-7.8	u
CCOc1ccc(NC(=O)CCNS(=O)(=O)c2cccc3nonc23)cc1	-6	-1.0	-0.8	-0.3	x	2	0.8	4
CCOc1ccc(N(CC(=O)Nc2ccc(C)cc2)S(=O)(=O)c2c(C)[nH]c(=O)[nH]c2=O)cc1	1	2.5	0.2	2.0	-7%	1	-0.6	u
O=C(Nc1ccccc1)[C@@H]1CC=C[C@@H]2CCN(C3CCCCC3)C(=O)[C@@H]21	-5	0.9	4.6	0.3	x	-10	-1.7	-3
Cc1cccc(Cn2c(=O)c3c(nc4n3CCCN4Cc3ccccc3)n(C)c2=O)c1	x	-4.8	0.8	0.9	-1%	45	x	-7
O=C(Nc1ccncc1)C1CCN(S(=O)(=O)c2ccccc2C(F)(F)F)CC1	x	-2.3	u	-1.0	2%	19	1.0	1
COc1ccc(-c2nc(CN3CCN(Cc4ccccc4)CC3)c(C)o2)cc1	-2	-0.7	-0.6	-0.4	x	u	5.0	4
CCOC(=O)c1c(C)sc2c1N(C(=O)CCl)c1cc(Cl)ccc1S2	0	-1.0	1.5	0.0	29%	27	x	1
Cc1ccc(C)n1-c1ccc(C(=O)N/N=C/c2ccncc2)cc1	-9	1.0	-1.6	0.2	x	-6	0.4	-6
Nc1nn2c(-c3ccccc3)cc(=O)[nH]c2c1N=Nc1ccc(O)cc1	6	2.2	5.7	0.1	x	-2	-1.1	66
CCOC(=O)N1CCN(C(=O)c2csc3c2CCCCC3)CC1	x	-3.8	-2.7	-1.5	-1%	7	x	-7
CC(C(=O)NC1C(=O)N2C(C(=O)O)=C(CSc3nnnn3C)CSC12)n1cc(Cl)cn1 (stereo not drawn)	-4	4.0	2.8	0.9	22%	4	-20	-11
C=CCN(Cc1ccc(Cl)s1)C(=O)CNC(=O)CNC(=O)c1ccc(Cl)cc1Cl	-5	0.1	x	-0.5	-14%	x	-0.2	x
CC(=O)NCCc1csc(-c2ccccc2)n1	0	-4.1	8.4	0.9	-2%	-8	3.6	3
CC(C)c1nnc(NC(=O)CCC(=O)NCc2ccccc2Cl)s1	1	3.3	-0.9	1.8	20%	-7	-7.8	1
CCOc1nc(C#N)nc(N2CCCCC2)n1	x	x	1.9	x	4%	5	x	-9
COCc1nc2sc3c(c2c(=O)[nH]1)CCCC3	-1	-1.8	0.6	0.3	-3%	-5	x	2
N#C/C(=C(/O)c1cc2ccccc2o1)c1nc2ccccc2s1	10	11	-2.2	-5.7	-12%	46	1.3	41
Cc1ccc(NC(=S)NCc2ccccn2)cc1	-1	-4.9	-14	1.7	4%	-19	x	-5
CC(C)N(C(=O)Cc1ccccc1[N+](=O)[O-])C(C)C	-7	-23	-1.8	-0.9	-5%	1	-2.2	4
Cc1cc(NC(=O)CSc2n[nH]c(-c3cccs3)n2)no1	-6	4.7	-4.9	0.1	28%	-19	x	9
O=C(NCCCNC1CCCCC1)c1ccc(/C=N/O)nc1	5	3.8	-1.9	0.0	0%	4	x	-14
COCCNC(=O)Cn1ncc2ccsc2c1=O	-11	0.7	-2.2	-0.2	69%	-18	2.1	-4
CCC(c1n[nH]c(=S)n1-c1ccccc1)N(C)C (stereo not drawn)	-6	-3.8	0.1	0.2	u	5	-2.5	6
Cc1ccccc1C(=O)Nc1c(C(=O)N2CCCC2)cnn1-c1ccccc1	-3	0.8	-1.5	1.0	3%	-7	2.5	-7
CCOc1ccc(S(=O)(=O)N2CCC(C(=O)NCc3ccncc3)CC2)cc1	1	-0.8	0.3	0.4	x	4	0.9	-7
CC(C)c1ccc(OCc2ccc(C(=O)N(C)C)o2)cc1	x	0.2	6.7	0.0	5%	8	-0.8	4
CCCCc1nnc(NC(=O)CSc2nc(C)cc(=O)[nH]2)s1	x	x	9.3	x	-1%	-3	x	-14
COC(=O)c1sccc1NS(=O)(=O)c1ccccc1	1	1.9	1.4	0.0	x	-1	-4.8	-1
COc1ccc([C@@H]2CC=C(C(=O)O)[C@H](c3ccccc3F)N2S(=O)(=O)c2ccc(C)cc2)cc1OC	-1	-3.2	x	-0.1	x	x	2.9	x
O=C(C1=C[C@@H](C2CC2)C[C@@H](OCCCCO)O1)N1CCN(Cc2ccc3c(c2)OCO3)CC1	-7	1.0	2.7	-4.3	13%	-5	0.9&0.9	-10
Cc1[nH]n(-c2ccc([N+](=O)[O-])cc2)c(=O)c1/C=N/N1CCOCC1	34	4.2	x	-7.5	5%	-11	1.9	-5
O=C(CSc1nnc(-c2ccc(Cl)cc2)n1Cc1ccco1)Nc1ccc2c(c1)OCCO2	-6	0.3	1.4	0.7	18%	6	x	17
O=C(NC1CCN(C(=O)N2c3ccccc3Sc3ccccc32)CC1)c1ccccc1Cl	9	2.7	-0.5	0.2	0%	26	x	-1
COc1ccc(-c2nnn(CC(=O)N(Cc3cccs3)C(C)C(=O)NC3CCCC3)n2)cc1OC (stereo not drawn)	1	1.7	0.9	-1.1	-8%	10	x	0
CCCCCCCCc1nc(SC(C)C(=O)O)n[nH]1 (stereo not drawn)	-1	0.6	3.1	0.8	7%	-5	-1.3	15
CCNC(=S)N1CCN(Cc2ccc3c(c2)OCO3)CC1	3	-0.3	-1.2	0.5	x	-4	-0.7	1
CC(C)OC(=O)C(C#N)c1nc2ccccc2nc1N1CCCC1 (stereo not drawn)	-1	-1.1	-3.3	-0.3	-2%	9	x	3
CC(Sc1nc2ccccc2c(=O)[nH]1)C(=O)O (stereo not drawn)	-5	2.0	-4.4	0.6	1%	-16	x	11
CN(CC(O)Cn1cnc2c1c(=O)n(C)c(=O)n2C)c1ccccc1 (stereo not drawn)	-3	-4.9	u	0.0	-7%	-4	-1.2	-4
Cc1cc(O)ccc1N=Cc1c(C(F)(F)F)[nH][nH]c1=O	-1	-1.6	1.9	-0.3	25%	-4	-7.1	20
CCOc1ccc(C2C(C#N)=C(N)Oc3cc(C)n(CCN(C)C)c(=O)c32)cc1OCC (stereo not drawn)	-3	3.0	-1.0	0.2	3%&-2%	1	x	48
Nc1nc(N2CCN(c3ccc(F)cc3)CC2)n[nH]1	x	1.6	3.3	0.7	-5%	3	0.1	-10
Cc1cc(NC(=O)CN2CCN(c3cccc(Cl)c3)CC2)no1	1	3.8	-3.3	1.4	-6%	-11	-2.7	40
CN(NC(=O)C(C)(C)C)c1nc(-c2ccccc2)nnc1C(F)(F)F	0	-4.8	3.5	1.6	4%	-5	x	-6

Next entries follow.
SMILES	Beta apoptosis	LANA-H2B inh	RanGTP-Impb inh	Bfl-1 A1 inh	Vif A3G	T cruzi repl	MLL AF4-AF9 inh	Calb FLC
CC(C)(C)c1csc(NNC(=O)c2ccc(Cl)cc2)n1	58	-3.6	-1.0	0.5	-7%	7	2.3	-14
CCN(C(=O)c1cc(Cl)ccc1Cl)C1CCS(=O)(=O)C1 (stereo not drawn)	0	-0.2	u	-0.4	6%	-11	-17	-3
CCOC(=O)c1c(NC(C)=O)sc2c(OC)c(Br)ccc12	3	0.5	-2.4	-0.3	4%	2	1.1	-4
CCC(C)C(NC(=O)C(CC(C)C)NC(=O)C(CO)NC(=O)C1CCC(=O)N1)C(=O)OC (stereo not drawn)	-4	-7.6	0.9	-2.4	-5%	-2	1.6	u
CCOC(=O)C1CCCN(C(=O)CCCn2nnnc2CN2CCC(C)CC2)C1 (stereo not drawn)	-7	-4.6	0.7	0.6	x	-5	3.2	18
Cn1cc([C@@H]2C[C@H]3CN(Cc4cccc(Cl)c4)C(=O)[C@]34CCCN24)c2ccccc21	8	-1.8	1.4	0.3	-1%	19	x	-13
COc1ccc(/C=N/n2c(-c3cc(C)[nH]n3)n[nH]c2=S)cc1OC	2	-0.8	1.7	0.5	x	5	-0.2	-4
CCOC(=O)C1=NNC(C(=O)c2ccc(Cl)cc2)C1c1ccc(OC)cc1 (stereo not drawn)	4	2.6	1.3	-0.9	6%	19	0.8	39
CNC(=O)c1ccccc1S(=O)(=O)c1ccccc1C#N	-4	-4.0	3.0	0.0	2%	-13	x	-4
COc1ccc(C(=O)NC2CC2)cc1OC1CCN(Cc2ccc(SC)cc2)CC1	1	12*	2.1	1.3	x	24	3.2	-1
CC1CCN(S(=O)(=O)c2cc(Br)cc(C(=O)NC3=NCCS3)c2)CC1	-2	2.8	-2.6	0.0	75%	13	x	12
